GALR2 agonist: activates the human galanin receptor 2. O43603. GALR2-expressing cells, agonist activation read-out. activation, %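 (tested at 5 µM)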. hit rate 0.48% among 140,000. AID 803;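 active = above mean plus 3 SD of all compounds, about 5% in these data, not always enough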;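 also: 0% = vehicle buffer wells and 100% = reference agonist at full effect; tested in CHO reporter cells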
Target sequence (O43603 whole entry, looked up): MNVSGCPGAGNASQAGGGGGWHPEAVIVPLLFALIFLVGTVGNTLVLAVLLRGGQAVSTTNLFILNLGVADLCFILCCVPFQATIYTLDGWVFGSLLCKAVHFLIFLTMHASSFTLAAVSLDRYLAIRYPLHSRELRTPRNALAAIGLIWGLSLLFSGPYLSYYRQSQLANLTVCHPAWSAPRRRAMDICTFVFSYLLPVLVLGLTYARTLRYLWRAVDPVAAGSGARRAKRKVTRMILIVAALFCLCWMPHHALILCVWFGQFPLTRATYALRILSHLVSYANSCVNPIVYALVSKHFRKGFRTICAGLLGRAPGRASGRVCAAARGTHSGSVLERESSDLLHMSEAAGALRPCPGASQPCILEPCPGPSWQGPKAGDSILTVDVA
RGS16-Gao: RGS16-Galphao interaction regulator (human); O15492+P09471; bead-based flow cytometry RGS16-Galphao binding, fluorescence; actives lie on both sides; binding response (% of control), % at 10 µM; hit rate 0.38% among 220,000; AID 1441;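 active = below 25% or above 175%, edge rows of some plates excepted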;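 also: Galphao activated by GDP with aluminum fluoride before binding; 100% = wells without compound and 0% = beads without RGS; some results beyond the cut were filed as inactive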
Target sequence (O15492 whole entry, looked up): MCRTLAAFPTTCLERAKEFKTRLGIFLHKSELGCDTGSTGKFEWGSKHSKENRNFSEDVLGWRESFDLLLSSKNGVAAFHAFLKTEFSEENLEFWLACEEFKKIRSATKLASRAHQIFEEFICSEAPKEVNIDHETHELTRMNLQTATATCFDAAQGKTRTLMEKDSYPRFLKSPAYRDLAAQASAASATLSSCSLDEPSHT
Target sequence (P09471 whole entry, looked up): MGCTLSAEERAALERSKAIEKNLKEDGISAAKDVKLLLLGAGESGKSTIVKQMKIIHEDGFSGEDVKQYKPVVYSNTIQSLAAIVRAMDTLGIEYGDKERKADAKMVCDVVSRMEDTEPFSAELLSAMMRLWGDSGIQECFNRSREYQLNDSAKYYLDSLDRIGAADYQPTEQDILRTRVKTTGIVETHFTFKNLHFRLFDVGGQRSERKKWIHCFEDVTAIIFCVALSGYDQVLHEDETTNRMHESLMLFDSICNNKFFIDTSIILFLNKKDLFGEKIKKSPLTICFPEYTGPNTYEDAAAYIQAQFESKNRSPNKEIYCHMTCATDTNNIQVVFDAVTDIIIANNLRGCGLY
HSV augment: HSV replication enhancement; maximum fold increase; HSV replication augmentation in cells, fold increase; hit rate 0.005% among 220,000;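 active = peak rise of 1.5-fold or more in the series; inconclusive = self-fluorescent or not available for retest; tested in PC3 cells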;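 also: first round at 10 µM; read as green reporter fluorescence; hits show the peak of a series up to 25 µM; 1 = signal of infected wells without compound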
PKD1 kinase inh: blocks activity of human protein kinase D1; hit rate 0.056% among 200,000; inhibition, %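 (about 10 µM by stock and volumes)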; PKD1 kinase fluorescence polarization assay; Q15139; AID 797;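 active = inhibition of 50% or more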;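 also: controls were vehicle for no effect and a reference inhibitor for full effect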
Insulin prom inh: TRM-6 insulin promoter activity inhibition. TRM-6 cells (human fetal islet line), insulin promoter-eGFP reporter, imaging; reporter expression induced with tamoxifen. inhibition, % at 2 µM. hit rate 0.9% among 130,000;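 active = inhibition above the mean plus 3 SD, with well images judged a real hit on visual review, cut at about 60% in these data, passing the limit was not always enough; inconclusive = inhibition over the cutoff but images rejected on review; inactive = inhibition not above the cutoff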
Insulin prom inh cell count: further read-out of Insulin prom inh, marked with its call; normalized cell count, %; measured here: cell count, toxicity; reference of the scale not given here;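 cells exposed to compound for 48 h; stained nuclei by imaging scaled within each plate; lower means fewer cells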
HSV augment primary fold: further read-out of HSV augment, marked with its call; fold increase; compound at 10 µM; measured here: primary screen fold increase 10 uM; tested in PC3 cells;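 GFP signal in the first replicate; 1 = infected wells without compound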
The depositor's hits bear a star; i = inactive; u = inconclusive; x = not tested or not shown.

Second line of a record: GALR2 agonist, RGS16-Gao, HSV augment, HSV augment primary fold, PKD1 kinase inh, Insulin prom inh, Insulin prom inh cell count
O=C(NC(=S)NN1CCCCC1c1cccnc1)c1ccc(Br)cc1 (stereo not given)
    x, 100, i, 1.1, x, x, x
O=C(CSc1nnc(Cc2ccccc2)o1)NCCN1C(=O)CSC1=O
    -0.4, 100, i, 0.69, 3, 16, 117
CC(=O)c1cccc(N(CC(=O)Nc2ccc(F)cc2F)S(C)(=O)=O)c1
    -1.3, 105, i, 0.81, -5, 16, 117
O=C(N/N=C/c1ccco1)c1ccccc1OCc1ccccc1Cl
    -0.2, 103, i, 0.9, 0, 8, 100
Nc1nc(-c2ccc(Br)cc2)cs1
    0.5, 107, i, 0.85, 3, x, x
CC(C)(C)C1CCC(=NNC(=O)c2ccccc2-n2cccc2)CC1 (stereo not given)
    0.5, 102, i, 0.99, -7, x, x
COc1ccc([N+](=O)[O-])cc1/C=N/NC(=O)CNC(=O)C(c1ccccc1)c1ccccc1
    0.8, 135, i, 0.94, -1, 0, 74
COC(=O)C1=C(C(=O)OC)[C@@H]2Nc3ccccc3[C@@]23C[C@@H](C(=O)OC)N(C(C)=O)C3=N1
    x, 102, i, 0.94, x, x, x
Cc1c(/C=N/NC(N)=O)c2ccccn2c1C(=O)c1ccncc1
    x, 100, i, 0.92, x, x, x
O=C(N/N=C/c1ccc(Cl)c([N+](=O)[O-])c1)c1cc(-c2ccc3c4c(cccc24)CC3)n[nH]1
    x, 95, i, 0.57, x, x, x
CC1CN(c2nc3c(c(=O)n(Cc4ccc(Cl)c(Cl)c4)c(=O)n3C)n2C)CC(C)O1 (stereo not given)
    -0.2, 101, i, 0.99, -2, x, x
Cc1ccc(CN2CCN(CC(=O)N3CCC(C(N)=O)CC3)C2=O)cc1
    -1.5, x, i, 1, -7, x, x
COc1ccc(CCNC(=O)CN2C(=O)c3ccccc3S2(=O)=O)cc1OC
    0.5, 106, i, 0.9, -5, 8, 158
CCOC(=O)c1sc(NC(=O)c2ccccc2C(=O)O)c(C(=O)OCC)c1C
    x, 100, i, 0.82, x, x, x
CCCCn1c(-c2cccs2)nc2nc3ccccc3nc21
    6.4, 103, i, 0.81, -5, 6, 112

Second line of a record: GALR2 agonist, RGS16-Gao, HSV augment, HSV augment primary fold, PKD1 kinase inh, Insulin prom inh, Insulin prom inh cell count
S=c1[nH]nc(-c2ccccc2Cl)n1/N=C/C=C/c1ccco1
    x, 98, i, 0.96, x, x, x
NC(=O)CSc1nnc(-c2ccncc2)n1-c1ccc(Cl)cc1
    -1.8, 49, i, 0.92, -1, x, x
CN(C)S(=O)(=O)c1cc(NC(=O)CSc2nn(-c3ccc(Cl)cc3)c(=S)s2)ccc1Cl
    -1.7, 96, i, 0.89, -6, -23, 136
COc1cc(NS(=O)(=O)c2ccc3c(c2)n(C)c(=O)n3C)cc(OC)c1
    -0.8, 116, i, 0.88, -6, 8, 134
CN1CCN(c2ccc([N+](=O)[O-])cc2C(=O)c2ccc(Cl)cc2)CC1
    -1.5, 104, i, 0.79, -11, -30, 64
O=[N+]([O-])c1cccc(/C=N/N2CCN(Cc3ccc(Cl)cc3)CC2)c1
    x, 95, i, 0.95, x, x, x
CCOC(=O)Cn1c(-c2cccnc2Cl)nc2ccccc21
    -2.7, 99, i, 1, 5, -15, 94
CC(C)c1ccc(NC(=O)Nc2cc3sccc3n2C)cc1
    -1.2, 106, i, 1, 2, x, x
O=C(NCc1ccccc1)c1ccc(S(=O)(=O)C(F)F)cc1
    -3.7, 112, i, 1, -2, 3, 70
O=C(Cn1cnc2ccccc2c1=O)Nc1cccc(-c2nnc3n2CCCCC3)c1
    -1.8, 92, i, 0.91, -4, 33, 101
NNC(=O)/C=C/c1ccc(Cl)cc1Cl
    x, 104, i, 0.78, -8, 5, 99
O=[N+]([O-])c1cnccc1Nc1ccc(Cl)cc1
    x, 117, i, 1.2, x, x, x
Cc1ccc(NC(=S)Nc2ccc3[nH]c(=O)[nH]c3c2)cc1
    x, 97, i, 0.96, x, x, x
CC(c1ccccc1)C1CC(=O)N(Cc2ccccc2)C1=O (stereo not given)
    x, 101, i, 0.95, -2, x, x
CCn1c(SCC(=O)Nc2oc(-c3ccccc3)c(-c3ccccc3)c2C#N)nnc1-c1ccco1
    -2.3, 98, i, 0.81, -6, -64, 119

Second line of a record: GALR2 agonist, RGS16-Gao, HSV augment, HSV augment primary fold, PKD1 kinase inh, Insulin prom inh, Insulin prom inh cell count
CN(c1ccccc1)S(=O)(=O)c1cccc(NC(=O)Nc2ccc(Cl)cc2C#N)c1
    0.9, 95, i, 0.93, 3, 20, 171
Cn1c(SCC(=O)NCCc2ccccc2)nc2c([nH]c3ccccc32)c1=O
    x, 98, i, 1.1, -1, -6, 87
CC(=O)N(c1cccc(Br)c1)c1nc(C)cc(C)c1C#N
    x, 101, i, 1.3, x, x, x
COc1ccc(C(=O)CCC(=O)Nc2cccnc2)cc1
    x, -5.4*, i, 0.99, -8, -58, 72
COc1ccc(N2CCN(Cc3nc(N)nc(N4CCCc5ccccc54)n3)CC2)cc1
    -1.1, 97, i, 1.1, 3, x, x
CCn1c(C)nc([N+](=O)[O-])c1C(=O)O
    x, 100, i, 1.2, 0, 30, 118
CC1CCCCC1NC(=O)COC(=O)c1ccc(S(=O)(=O)N2CCOCC2)cc1 (stereo not given)
    0.0, 103, i, 0.99, 0, x, x
COc1cc(C(CCN2CCCC2)c2c(OC)cc(OC)c3c(C)cc(=O)oc23)cc(OC)c1OC (stereo not given)
    x, 105, i, 0.78, x, x, x
O=C(NC1CCCCC1)c1ccc(CNc2c(N3CCOCC3)c(=O)c2=O)cc1
    -2.1, 103, i, 1, -5, x, x
CC1CCCCC12NC(=O)N(CC(=O)Nc1ccc(N3CCOCC3)cc1)C2=O (stereo not given)
    -1.7, 102, i, 0.96, -5, x, x
CC(C)(C)c1ccc(Cn2cnc(-c3ccc([N+](=O)[O-])cc3)c2)cc1
    -1.3, 105, i, 1, 4, x, x
Cc1ccc(NC(=O)CC(N)=S)cc1
    x, 101, i, 1.1, x, x, x
CSCC(=O)N1CCCC(CO)(Cc2ccccc2C)C1 (stereo not given)
    x, 112, i, 0.92, -4, x, x
Cc1ccc(OC(=O)c2ccccc2P(=O)(O)O)cc1
    0.7, 101, i, 0.88, -5, -28, 101
Cc1ccc(S(=O)(=O)N(CC(=O)Nc2ccccc2C(=O)O)c2ccc(Cl)cc2)cc1
    x, 101, i, 0.96, 7, -94, 71

Another view of some results above:
smiles	GALR2 agonist	RGS16-Gao	HSV augment	HSV augment primary fold	PKD1 kinase inh	Insulin prom inh	Insulin prom inh cell count
S=c1[nH]nc(-c2ccccc2Cl)n1/N=C/C=C/c1ccco1	x	98	i	0.96	x	x	x
O=C(NCc1ccccc1)c1ccc(S(=O)(=O)C(F)F)cc1	-3.7	112	i	1	-2	3	70
O=C(CSc1nnc(Cc2ccccc2)o1)NCCN1C(=O)CSC1=O	-0.4	100	i	0.69	3	16	117
O=[N+]([O-])c1cccc(/C=N/N2CCN(Cc3ccc(Cl)cc3)CC2)c1	x	95	i	0.95	x	x	x
Cc1ccc(NC(=O)CC(N)=S)cc1	x	101	i	1.1	x	x	x

The list continues:
Second line of a record: GALR2 agonist, RGS16-Gao, HSV augment, HSV augment primary fold, PKD1 kinase inh, Insulin prom inh, Insulin prom inh cell count
C=CCn1c(SCC(=O)Nc2cc(C)nn2-c2ccccc2)nnc1C1CCCCC1
    -1.2, 106, i, 0.88, -4, -48, 100
CCC(=O)NC(=S)Nc1cccc(NC(=O)c2ccccc2C)c1
    x, 101, i, 0.92, -3, x, x
COc1ccc(Cc2nc(C(=O)Nc3ccc(Cl)cc3)cs2)cc1
    -2.3, 101, i, 1, 3, x, x
Cc1ccc(N=Nc2ccc(O)c3ncccc23)cc1C
    x, 100, i, 0.67, -6, -279, 38
CN(C(=O)Nc1ccc(Cl)cc1)n1cnc2ccccc2c1=O
    x, 100, i, 1.2, x, x, x
CCOC(=O)CSc1nc2cc3c(cc2cc1C#N)OCCO3
    x, 106, i, 1.1, -5, -56, 116
O=S(=O)(c1ccc2c(c1)oc1ccccc12)N1CCOCC1
    -3.1, 99, i, 0.96, 4, -51, 75
CCn1c(SCC(=O)NCCc2ccc(F)cc2)nnc1-c1cccs1
    -0.5, 114, i, 1, -16, x, x
O=C(NCc1ccco1)c1cnn2c(C(F)(F)F)cc(-c3ccco3)nc12
    0.5, 94, i, 0.91, -2, -96, 103
COCCNc1nc(Cl)c(C#N)s1
    x, 122, i, 0.96, 1, x, x
COc1cc(OC)c(NC(=O)CCNC(=O)Cn2cnc3ccccc3c2=O)cc1Cl
    -2.2, 102, i, 0.97, 1, x, x
CC(=O)c1c(C)c(C)c2n1CCn1c(C)ccc1-2
    x, 94, i, 0.98, x, x, x
Nc1ccc2nc(-c3cccnc3)[nH]c2c1
    -0.1, 102, i, 1, -13, x, x
COc1ccc(N(C)S(=O)(=O)c2cccc(C(=O)Nc3nc4ccccc4[nH]3)c2)cc1
    x, 112, i, 0.81, 1, 71*, 87*
CN1/C(=C/C(=S)NC(=O)C2(C)CC2(Cl)Cl)C(C)(C)c2ccccc21 (stereo not given)
    x, 103, i, 1.2, -3, -21, 124

Second line of a record: GALR2 agonist, RGS16-Gao, HSV augment, HSV augment primary fold, PKD1 kinase inh, Insulin prom inh, Insulin prom inh cell count
Cc1ccc2[nH]c(=O)c(CN(CCN3CCOCC3)C(=O)Nc3ccc(F)cc3)cc2c1
    -0.2, 108, i, 1, -7, 7, 69
CCOc1cc(/C=N/Nc2cccc(C(=O)O)c2)ccc1OC(=O)c1ccccc1
    x, 101, i, 0.95, -4, 47, 52
O=C(/C=C/c1ccccc1)NCC1(c2ccccc2)CCOCC1
    x, 101, i, 1, x, x, x
Cc1ccc(Cn2ccc(NC(=O)c3cc(-c4ccccc4)on3)n2)cc1
    -0.1, 101, i, 0.87, -16, -13, 154
COc1ccc(CCNC(=O)c2cnc3n(c2=O)CCS3)cc1OC
    -1.6, 99, i, 0.88, -9, -40, 57
CCOC(=O)c1c(-c2ccccc2)csc1NC(=O)/C(C#N)=C/c1ccc(O)c(OC)c1
    1.1, 108, u, x, -11, x, x
Cc1nn(-c2ccccc2)c(Cl)c1C(=O)Nc1ccc(N2CCOCC2)cc1
    x, 100, i, 0.91, 4, x, x
CC(/C=C/c1ccccc1)=N/O
    -3.5, 105, i, 0.97, -11, x, x
CCC(C)N(C)C(=O)c1cc2ccccc2c(-c2ccccc2Cl)n1 (stereo not given)
    x, 106, i, 0.86, 0, -60, 102
COc1cc(OC)cc(C(=O)N[C@H](C(=O)NCc2cccs2)C(C)C)c1
    x, 103, i, 0.92, -4, x, x
COCCc1ccc(OCC(O)CNC(C)C)cc1 (stereo not given)
    -0.2, 102, i, 0.83, -14, -32, 35
COc1ccc(N2CCN(C(=O)CSc3nnc4ncccn34)CC2)cc1
    -1.3, 102, i, 0.96, -1, x, x
Cc1ccc(S(=O)(=O)N(C)c2ccc(OCC(=O)Nc3cccc(-n4cnnn4)c3C)cc2)cc1
    x, 87, i, 1, x, x, x
O=C(Nc1cc(Cl)ccc1Oc1ccccc1)c1ccc(F)cc1
    -0.9, 98, i, 0.98, -3, x, x
CCCNC(=O)NC(=O)COc1ccc(-c2ccc(C#N)cc2)cc1
    x, 97, x, x, -4, 64, 74

Second line of a record: GALR2 agonist, RGS16-Gao, HSV augment, HSV augment primary fold, PKD1 kinase inh, Insulin prom inh, Insulin prom inh cell count
COc1ccc(S(=O)(=O)NC(CC(=O)NC2CCCC2)c2ccco2)cc1 (stereo not given)
    -0.2, 94, i, 1, -3, x, x
O=c1c2cnn(-c3ccccc3)c2ncn1Cc1ccccc1F
    -1.2, 76, i, 0.97, -5, x, x
CC(C)Oc1snc(Cl)c1C(N)=O
    -1.9, 88, x, x, 0, 14, 107
NC(=O)CSc1nnc(Cn2c(=O)sc3ccccc32)n1-c1cccc(Cl)c1
    -1.9, 100, i, 0.98, 7, x, x
O=C(Nc1ccc2c(c1)OCCO2)C1CCN(C(=O)c2ccccc2)CC1
    -2.7, 99, i, 0.92, -9, 26, 109
COc1ccc(-c2nn(CC(=O)NCCc3ccccc3)c(=S)n2C)cc1
    -0.8, 108, i, 0.88, -7, 14, 186
CCCCOc1ccc(C(=O)Nc2cc(C)c(OCC(=O)N3CCOCC3)c(C)c2)cc1
    -1.7, 114, i, 0.92, -2, 41, 149
COC(=O)C(Cc1ccccc1)NC(=O)c1cc(=O)[nH]c2ccccc12 (stereo not given)
    x, 99, i, 0.94, -6, x, x
C=CCn1c(Cc2c[nH]c3ccccc23)n[nH]c1=S
    -3.6, 103, i, 0.83, 4, 49, 125

High-throughput results from PubChem BioAssay.
